Source: PubChem BioAssay (several laboratories)
Autofluor counter – compound fluorescence in toxin protease inhibitor counterscreen. AID 624483. hit rate 3.1% among 360,000. compound autofluorescence counterscreen, microsphere flow cytometry; hits give high values. fluorescence intensity (test concentration not listed);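 active = at least 3 SD above the mean of all compounds, about 16000 in these data; inconclusive = too few beads counted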;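 note: 100 nL of 1 mM stock went into each well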
BJeLR lethal – MLPCN primary cell-based screen for lethality selective to Ras in HRASV12 cells. inhibition, % (concentration not given with the values). BJeLR (HRASV12) viability, CellTiter-Glo ATP luminescence, 48 h; reference of the scale not given here. hit rate 0.17% among 300,000;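 active = replicate mean above 50%; inconclusive = above 50% but judged a plate artefact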;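 note: 50 nL library stock added to about 25 µL; numbers are from one replicate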
Mtb hypoxia inh – PubChem AID 1159583; M. tuberculosis hypoxia-regulated fluorescent reporter, fluorescence; fluorescence inhibition, % (concentration not given with the values); hit rate 0.1% among 300,000;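 active = 35 to 45% if threefold the growth effect, above 45% if 1.5-fold the growth effect; inactive = the rest, general growth blockers included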;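 note: wells of about 50 µL received 100 nL stock; 0% = vehicle wells and 100% = reference inhibitor wells; whole bacteria with a GFP reporter of the hypoxia response; strong numbers were not always called active; many hits fall short of the cut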
PrP 5UTR inh – inhibition of PrP 5' UTR reporter expression. cell-based PrP 5' UTR mRNA reporter, plate reader. inhibition, % (test concentration not listed). hit rate 0.35% among 340,000. AID 488862, 2010;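 active = every replicate at 50% or more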;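 note: 0 = median of the neutral control wells; tested in H4 reporter cells; numbers are from one replicate; inactives centre near -14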
ugtP null kill – growth inhibition of ugtP-null S. aureus, primary screen, RN4220 ugtP deletion, OD600. 16 h; some inactives read as strong as hits. growth inhibition, % (no concentration beside the values). hit rate 0.54% among 330,000. AID 1259309, 2017;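 active = z-score under -3 and OD600 up to 0.15 on both plates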;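 note: plate controls were untreated wells for no effect and antibiotic for full effect; wells of about 80 µL received 100 nL stock; the first replicate is given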
Sa RN4220 lethal – growth inhibition of S. aureus RN4220, primary screen, OD600; 16 h; inhibition, % (no concentration beside the values); hit rate 0.33% among 330,000; AID 1259311, 2017;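 active = z-score of -3 or lower and OD600 up to 0.18 on both plates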;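 note: plate controls were untreated cells for no effect and reference antibiotic for full effect; stock transfer was 100 nL into about 80 µL; one replicate is shown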
Mtb hypoxia inh growth – recorded beside Mtb hypoxia inh, whose call it bears; growth inhibition, %; measured here: M. tuberculosis growth (absorbance);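 0% = vehicle and 100% = reference antibiotic; read after six days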
Numbers without * were called inactive; ? = inconclusive; nt = not tested or not shown.

SMILES | Autofluor counter | BJeLR lethal | Mtb hypoxia inh | Mtb hypoxia inh growth | PrP 5UTR inh | ugtP null kill | Sa RN4220 lethal
COc1ccc(CN(C(=O)COc2ccccc2)c2ccccc2C(=O)O)cc1 | 4470 | 21 | 13 | 13 | -17 | 0 | 3.2
Cc1cc(-c2nc3ncccc3o2)ccc1NC(=S)NC(=O)C(C)C | 2725 | 6 | -7 | 2 | -17 | 0 | -1.6
CCOC(=O)N1CCC(N2Cc3cccc(C(=O)N4CC(C)CC(C)C4)c3C2=O)CC1 (centres undefined) | 2136 | 0 | 5 | 2 | -11 | 2 | 2.5
CC(=O)Nc1cc(C(F)(F)F)ccc1OCC1CCCO1 (centres undefined) | 2651 | nt | nt | nt | -14 | 6 | -4.1
Cc1cc(C(=O)NCc2ccco2)c2ccccc2n1 | 4155 | -1 | 11 | 7 | -7 | 3 | 1.5
CCOc1cccc(C(=O)Nc2cccc(-c3nnc(-c4ccc(C)cc4)o3)c2)c1 | 11769 | 7 | 0 | 2 | -15 | -13 | 3.0
O=C(Cc1nn[nH]n1)c1ccccc1O | 2104 | 3 | 5 | 14 | -30 | 5 | 2.4
CC(C)NS(=O)(=O)c1ccc(NC(=O)C(C)OC(=O)CCC(=O)c2cccs2)cc1 (centres undefined) | ? | nt | -3 | -2 | -9 | 0 | 4.9
CCOc1ccc(Nc2nc3ccccc3c(=O)s2)cc1 | 3321 | 9 | -10 | -6 | -5 | -13 | -2.3
Cc1cccc(C2C3C(=O)N(Cc4ccccc4)C(=O)C3[C@]3(C)C(=O)N(c4cccc(F)c4)C(=O)N23)c1 (some centres undefined) | nt | nt | 3 | 8 | nt | -1 | 0.4
COc1ccc(/C=C/C(=O)Nc2ccc(N3CCOCC3)cc2)cc1 | 2604 | 6 | 4 | 2 | -5 | 6 | 2.8
CC(C)CCNC(=O)CCc1nnc(COc2ccccc2)o1 | 2250 | -2 | 0 | 12 | -9 | 11 | 0.0
CCn1c(C)cc(/C=C2/SC(=O)N(C(C)C(=O)OC)C2=O)c1C (centres undefined) | 4266 | 1 | 7 | 14 | -137 | 4 | 1.6
O=C(CSc1cccc2cccc(Cl)c12)NCc1cccs1 | 2637 | 2 | -9 | 1 | -12 | 2 | -4.6
CCn1nnc(NC(=O)c2ccc(-c3ccccc3[N+](=O)[O-])o2)n1 | 4489 | -4 | 1 | 9 | -18 | -2 | 8.9
COc1cc(NC(=O)CSc2nc(=O)n(CCN3CCOCC3)c3c2CCC3)cc(OC)c1 | 6205 | 15 | -4 | 0 | -24 | -4 | -2.7
O=C(Nc1ccc(Cl)cc1)c1cnc(-c2ccccc2)nc1-c1ccccc1 | 4201 | 3 | 1 | 4 | -16 | -4 | 10
Cc1cccc(NS(=O)(=O)c2cccc(C(=O)NCC(c3ccco3)N(C)C)c2)c1 (centres undefined) | 4577 | -4 | 0 | 3 | 5 | -2 | 5.0
CCN(CC(=O)NCc1ccc(Cl)cc1)C(=O)COc1cccc(C(F)(F)F)c1 | ? | -7 | 1 | -18 | 3 | 2 | 0.8
COc1ccccc1-c1nc(C#N)c(N2CCCCCC2)o1 | ? | 0 | 0 | 6 | -22 | -10 | 7.8
O=C1NN(c2cccc(Br)c2)C(=O)/C1=C\c1ccccc1 | 3970 | -2 | -3 | -5 | nt | 6 | 4.9
CC(C)(C)c1ccc(C(=O)N2CCC(C(=O)NC3CCCCCC3)CC2)cc1 | 3099 | -3 | 1 | 0 | -25 | 6 | 3.8
O=C(C1CCN(S(=O)(=O)c2ccc(Br)cc2)CC1)N1CCOCC1 | 4960 | 5 | 6 | 5 | -26 | 12 | -2.2
O=C(CSc1nnc(Cn2c(=O)sc3ccccc32)n1CCc1ccccc1)N1CCCC1 | 5714 | -2 | nt | nt | -19 | 3 | 9.9
COc1ccc(N2CCN(C(=O)C3CCN(S(=O)(=O)c4ccccc4)CC3)CC2)cc1 | 4544 | 4 | -3 | 9 | -4 | 13 | 1.1
Cc1ccnc(N2CCCC(C(=O)Nc3cc(F)ccc3C)C2)n1 (centres undefined) | 12707 | 5 | 3 | 5 | nt | 8 | 5.1
O=C(CCC(=O)N1CCCC1)Nc1nnc(C2CCCCC2)s1 | 5020 | 3 | nt | nt | -4 | -6 | -1.2
CCN(CC(=O)NC(C)C)C(=O)c1ccc(S(=O)(=O)N(C)c2ccccc2OC)cc1 | 3343 | 7 | 17 | 11 | 44 | 8 | 3.7
COc1ccccc1NC(=O)c1sc2ncn(CC(=O)N3CCC(C)CC3)c(=O)c2c1C | 5085 | -3 | 3 | 3 | -5 | 5 | 1.2
CN(Cc1nc(-c2ccccn2)no1)S(=O)(=O)c1ccccc1 | 2036 | nt | nt | nt | 3 | -3 | 4.5
Cn1ncc([N+](=O)[O-])c1C(=O)N1CCOCC1 | 6574 | -14 | 9 | 6 | -15 | 4 | 2.7
CC(C)(C)S(=O)(=O)c1cnc(-c2cnccn2)nc1N | 6393 | 2 | 6 | 6 | -45 | 10 | 2.6
CCOCCCn1c(N)c(C(=O)Nc2sc3c(c2C(=O)OC)CCCC3)c2nc3ccccc3nc21 | 10040 | -5 | -5 | -2 | -9 | -1 | -2.9
COc1ccc(Cc2nnc(NC(=O)c3ccco3)s2)cc1 | 8482 | -2 | 8 | -2 | -16 | -3 | -3.0
COc1ccc(C2C=CCN(C(=O)c3ccc(C)cc3)C(Cc3ccccc3)C(=O)N2Cc2ccc(F)cc2)cc1 (centres undefined) | nt | nt | 0 | 2 | nt | -24 | 1.3
CCN(C(=O)CSc1nnc(-c2ccc(OC)cc2)n1N)c1c(N)n(Cc2ccccc2)c(=O)[nH]c1=O | 3784 | nt | 6 | 11 | -7 | 3 | 0.6
CC1=C(C(=O)OC(C)(C)C)C(c2ccc3ccccc3c2)NC(=O)N1C (centres undefined) | 3631 | 4 | -7 | 10 | -21 | 2 | 5.8
O=C(CN1C(=O)C2CC=CCC2C1=O)N1CCN(c2ccc([N+](=O)[O-])cc2)CC1 (centres undefined) | 6100 | -6 | 0 | 8 | 12 | 17 | 1.1
COc1ccc(S(=O)(=O)NCc2cccnc2)cc1NC(=O)c1ccccc1 | 5351 | -6 | -9 | 0 | -20 | 10 | 1.6
COc1ccc(CC(=O)NNS(=O)(=O)c2ccc(F)cc2)cc1OC | 4643 | 5 | 12 | 9 | -6 | 9 | -0.9
O=C(CSc1ccc2ccccc2n1)NN=Cc1ccc(O)cc1 | nt | nt | 13 | 1 | nt | 3 | 4.6
C/C(=N\NC(=O)CNc1ccc(F)cc1)c1cc2ccccc2o1 | 3510 | 1 | nt | nt | -16 | nt | nt
O=C(Nc1ccccc1)N(Cc1ccc(Cl)cc1)CC(O)C(F)(F)F (centres undefined) | 2305 | -6 | nt | nt | -14 | 0 | 6.4
CCOc1ccc(NC(=O)CSc2nnc(-c3ccccn3)n2C)cc1 | 11180 | -3 | 4 | 6 | -32 | -9 | 5.5
COC(=O)c1ccc(N/N=C/c2cc([N+](=O)[O-])cc(OC)c2O)cc1 | 5069 | 4 | nt | nt | -17 | nt | nt
CC1(C)NC(=O)N(CC(O)COc2cc3ccccc3cc2C(=O)N2CCCCC2)C1=O (centres undefined) | 2295 | 0 | nt | nt | -2 | 1 | 0.5
CCOc1ccc(NS(=O)(=O)c2ccc(C(=O)NCCN3CCOCC3)cc2)cc1 | 6374 | -3 | 4 | -10 | 8 | 1 | 0.3
Cc1ccc(OCC(=O)N2CCCCCCC2)cc1C | 3594 | 9 | 4 | 16 | -13 | -5 | -0.6
Cc1ccc(CN2CCN(Cc3ccccc3F)CC2)cc1 | 3453 | -2 | -1 | 9 | 3 | -7 | -1.2
O=C(CN(C(=O)CCC(=O)Nc1ccccn1)c1cccc(F)c1)NCc1ccc2c(c1)OCO2 | 3531 | 1 | 9 | 14 | -29 | 5 | -1.1
Additional records:
SMILES | Autofluor counter | BJeLR lethal | Mtb hypoxia inh | Mtb hypoxia inh growth | PrP 5UTR inh | ugtP null kill | Sa RN4220 lethal
S=c1[nH]nc(Nc2ccc(Cl)cc2)s1 | 6196 | 10 | 4 | 4 | -30 | 7 | 29
Cc1sc2ncnc(OCC(=O)N3CCN(C(=O)c4ccco4)CC3)c2c1C | 3419 | 4 | 6 | 7 | -18 | 11 | -0.4
O=c1c(C=Nc2ccc(Cl)cc2)c[nH]n1-c1cccc(Cl)n1 | 4053 | 2 | 2 | -1 | -32 | 3 | 0.0
O=C(OCC(=O)N1CCCC1)c1c2c(nc3ccccc13)CCCCC2 | 4318 | 0 | 3 | 14 | -13 | 2 | 1.5
O=C(O)c1cccc(-n2cccc2/C=C2/SC(=O)N(CC(=O)N3CCCC3)C2=O)c1 | 5311 | 0 | 7 | 15 | -6 | 4 | 2.7
O=C(Cn1cc(C(F)(F)F)ccc1=O)N/N=C/c1cccc(Cl)c1 | 2152 | 0 | nt | nt | -20 | nt | nt
COc1ccccc1N1CCN(C(=O)CCS(=O)(=O)c2ccc3c(c2)NC(=O)C(C)S3)CC1 (centres undefined) | 5081 | -2 | 1 | 5 | -15 | -4 | 1.6
CCn1c(=O)c2c(nc3n2CCCN3Cc2ccccc2)n(C)c1=O | 3590 | -1 | 16 | 12 | -9 | 1 | 1.2
COCc1cc(=O)n2[nH]c(-c3ccc(C)cc3)cc2n1 | 9447 | -6 | 4 | 4 | -34 | 0 | 1.1
COc1ccc(/C=C/c2nc(N)nc(-c3ccccc3O)n2)cc1 | 9515 | 6 | 6 | -3 | -2 | 9 | -7.0
Cc1cc(C)cc(-n2c(C)cc(C=NNC(=O)COc3cccc4cccnc34)c2C)c1 | nt | nt | -10 | 5 | nt | -9 | -0.9
CN(c1ccccc1C(=O)Nc1ccccc1-c1ccccc1)S(C)(=O)=O | 4324 | -1 | -3 | 6 | -41 | 0 | 2.4
Cc1ccc(C)c(OCC(=O)Nc2ccc3c(c2)OCO3)c1 | 10060 | -6 | 3 | 3 | -28 | 5 | 22
COc1ccc(N2CCN(C(c3cccs3)C(C)NS(=O)(=O)c3ccccc3)CC2)cc1 (centres undefined) | 16688* | 6 | nt | nt | -7 | nt | nt
COc1cccc(CN(C)C(=O)c2ccc(OCC(=O)Nc3cccc(C(F)(F)F)c3)c(OC)c2)c1 | ? | 2 | -4 | 5 | -21 | -18 | -1.0
COc1cccc(Cn2cnc3c(NS(=O)(=O)c4ccc(Cl)cc4Cl)c(C)c(C)cc32)c1 | 4223 | 0 | 0 | 6 | -2 | -30 | -4.1
CCN(Cc1ccccc1)C(=O)c1cccc(OC2CCN(C(=O)C3CC3)CC2)c1 | 4912 | -9 | -2 | 5 | -14 | -1 | -0.7
CCOC(=O)c1ccccc1NC(=O)CSc1nnc(COc2ccccc2C)n1C | 17960* | 0 | 3 | 9 | -30 | 0 | 2.0
N#Cc1nc(COc2ccc(F)cc2)oc1N1CCCCC1 | 4299 | 12 | 7 | 6 | -4 | 0 | 1.4
O=C1Nc2cc(Cl)c(Cl)cc2N(O)N1c1cc(Cl)cc(Cl)c1 | 7840 | -8 | 11 | 6 | 0 | -2 | 4.2
Cc1cc(N2CCCCC2)ccc1C=C1C(=O)N(C)C(=S)N(C)C1=O | 2908 | -11 | 4 | -3 | -4 | -5 | 7.2
O=C(COc1ccc(-n2cnnn2)cc1)NC(=O)NCc1ccccc1 | 3599 | -9 | nt | nt | 12 | 3 | 8.6
O=C(Nc1ccccc1Cl)NC1(C(=O)N2CCOCC2)CCCCC1 | 6339 | -3 | 3 | -6 | -25 | 5 | 2.3
O=C(CN(C(=O)c1ccc(Cl)cc1)N1C(=O)C2CCCCC2C1=O)c1ccc(Cl)cc1 (centres undefined) | 10266 | -10 | 11 | 5 | -22 | 15 | 5.6

A run of entries from the list above:
SMILES | Autofluor counter | BJeLR lethal | Mtb hypoxia inh | Mtb hypoxia inh growth | PrP 5UTR inh | ugtP null kill | Sa RN4220 lethal
CCOC(=O)c1ccccc1NC(=O)CSc1nnc(COc2ccccc2C)n1C | 17960* | 0 | 3 | 9 | -30 | 0 | 2.0
N#Cc1nc(COc2ccc(F)cc2)oc1N1CCCCC1 | 4299 | 12 | 7 | 6 | -4 | 0 | 1.4
O=C1Nc2cc(Cl)c(Cl)cc2N(O)N1c1cc(Cl)cc(Cl)c1 | 7840 | -8 | 11 | 6 | 0 | -2 | 4.2
Cc1cc(N2CCCCC2)ccc1C=C1C(=O)N(C)C(=S)N(C)C1=O | 2908 | -11 | 4 | -3 | -4 | -5 | 7.2
